GLA inh pH 4.5 = inhibitors of human alpha-galactosidase A at pH 4.5 | activity change, negative = inhibition, % at 105 µM | 230,000 tested, under 10 active | P06280 | purified enzyme, 4-MU-alpha-Gal fluorescence, pH 4.5 | AID 1467; inconclusive = small, poorly fitted or top-dose-only inhibition, or a rising curve; inactive = flat fitted curve, though single readings scatter; no compound was filed as active;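 also: 0% = full activity with enzyme and -100% = basal without enzyme; dose as in the result columns while the protocol names 77 µM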
Target sequence (P06280 whole entry, looked up): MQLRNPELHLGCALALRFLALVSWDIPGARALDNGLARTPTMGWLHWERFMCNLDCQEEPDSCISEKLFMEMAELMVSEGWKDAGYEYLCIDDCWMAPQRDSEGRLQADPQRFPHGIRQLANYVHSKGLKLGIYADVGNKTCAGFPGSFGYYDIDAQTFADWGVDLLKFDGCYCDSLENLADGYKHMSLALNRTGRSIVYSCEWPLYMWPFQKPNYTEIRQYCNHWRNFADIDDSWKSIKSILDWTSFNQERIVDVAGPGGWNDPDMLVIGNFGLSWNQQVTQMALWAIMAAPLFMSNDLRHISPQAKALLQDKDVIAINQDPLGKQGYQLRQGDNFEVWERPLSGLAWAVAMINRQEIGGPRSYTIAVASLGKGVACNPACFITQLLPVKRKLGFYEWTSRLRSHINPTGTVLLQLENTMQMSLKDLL
Rango-impB inh = Rango-importin beta binding inhibition | Q14974 | hit rate 0.031% among 340,000 | Rango CFP/YFP FRET sensor + importin beta, 45 min | Potency, µM (titrated, usually from 92.2 µM), for inactives: at the highest dose inhibition of complex formation; active = rising FRET ratio curve, often small or poorly fitted; inconclusive = mostly compound fluorescence or quenching in the first reads; inactive = flat curves in all reads;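 also: potency is read from the fitted curve at half-maximal effect; 0% = DMSO wells and 100% = buffer wells lacking importin beta; nearly all actives have a fitted effect of over 15% in size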
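Inhibition scored from the CFP 486 nm/YFP 530 nm FRET ratio 45 min after adding 0.125 microM importin beta to 50 nM Rango biosensor preincubated 5 min with compound (room temperature, PBS with DTT, Tween-20, BSA). No-importin wells as positive control.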
Rango dissoc inh = inhibition of RanGTP-driven Rango-importin beta dissociation | Potency, µM (top dose mostly 46.1 µM), for the others: at the highest dose activity change, negative = inhibition | hit rate 0.071% among 340,000 | Biochemical FRET Rango-importin beta, RanGTP-induced dissociation | O95149+P62826; active means falling FRET ratio curve, often poorly fitted, with flat reads before Ran was added; inconclusive means other falling curves, or compound fluorescence or quenching; inactive means flat or rising ratio curve;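 also: potency is read from the fitted curve at half-maximal effect; % of control where 0% means no effect; nearly all actives have a fitted effect of over 45% in size; -100% = wells without RanGTP and RCC1; the record marks most hits as doubtful in a second field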
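Two FRET readings bracket the reaction: one 5 min after compound meets Rango–importin beta, another 45 min after RanGTP-RCC1 (0.6 uM Ran, 0.2 uM RCC1, 2 mM GTP) is added. Only the second defines inhibition.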
miR-21 reporter = raises the signal of a miR-21 reporter; HeLa miR-21 FLuc reporter, luciferase, 48 h; Potency, µM (titrated, usually from 38.3 µM), inactives show at the highest dose reporter change, positive = more light; 340,000 tested, under 10 active; active = well fitted rising curve with a large enough effect; inconclusive = small, poorly fitted or top-dose-only effect; inactive = no such curve, though single readings can be large or run the other way;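 also: % of control where 0% means no effect; miR-21 action dims this reporter so a rising signal means less miR-21 action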
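Using DMEM plus 10% FBS, HeLa miR-21-FLuc cells are incubated with test compounds (final up to about 40uM) for 48 hours; firefly luciferase signal is then imaged following reagent-mediated lysis.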
Starred values were filed as active, the others as inactive; ? = inconclusive; nt = not tested or not shown. These rows are one share of the data, so the mix of outcomes need not match the whole.

No.	GLA inh pH 4.5	Rango-impB inh	Rango dissoc inh	miR-21 reporter	SMILES
1	nt	1.3%	1%	1%	Cc1ccc(C(=O)Nc2c(N)nc(SCC(=O)Nc3cc(C)on3)[nH]c2=O)cc1
2	nt	-0.2%	0%	nt	CCCc1nc2c(s1)CCc1onc(-c3ccc(Cl)cc3)c1-2
3	0	-0.9%	1%	4%	COc1ccc(C2(c3ccc(O)cc3O)CC(c3ccccc3Cl)NC(=S)N2)cc1 (configuration not stated)
4	5	-1.2%	1%	-4%	CCOc1cccc(C(=O)Nc2cccc(-c3nnc(-c4ccc(C)cc4)o3)c2)c1
5	-3	5.1%	10%	2%	O=C(Cc1nn[nH]n1)c1ccccc1O
6	-5	4.1%	-20%	7%	Cc1cc(C(=O)NCc2ccco2)c2ccccc2n1
7	5	-3.2%	13%	0%	CCOc1ccc(Nc2nc3ccccc3c(=O)s2)cc1
8	nt	-5.0%	-9%	nt	CC(C)NS(=O)(=O)c1ccc(NC(=O)C(C)OC(=O)CCC(=O)c2cccs2)cc1 (configuration not stated)
9	-8	?	-13%	-60%	CCn1c(C)cc(/C=C2/SC(=O)N(C(C)C(=O)OC)C2=O)c1C (configuration not stated)
10	1	-0.3%	0%	-7%	CC(C)CCNC(=O)CCc1nnc(COc2ccccc2)o1
11	-6	-3.4%	-7%	-13%	COc1ccc(/C=C/C(=O)Nc2ccc(N3CCOCC3)cc2)cc1
12	-1	-0.3%	4%	-16%	O=C(CSc1cccc2cccc(Cl)c12)NCc1cccs1
13	nt	0.4%	24%	nt	COc1cc(NC(=O)CSc2nc(=O)n(CCN3CCOCC3)c3c2CCC3)cc(OC)c1
14	2	6.1%	-3%	-41%	CCn1nnc(NC(=O)c2ccc(-c3ccccc3[N+](=O)[O-])o2)n1
15	15	-3.1%	3%	-26%	COc1ccccc1-c1nc(C#N)c(N2CCCCCC2)o1
16	4	1.8%	17%	-2%	O=C(Nc1ccc(Cl)cc1)c1cnc(-c2ccccc2)nc1-c1ccccc1
17	nt	-5.0%	-14%	nt	CCN(CC(=O)NCc1ccc(Cl)cc1)C(=O)COc1cccc(C(F)(F)F)c1
18	nt	-0.6%	-1%	nt	Cc1cccc(NS(=O)(=O)c2cccc(C(=O)NCC(c3ccco3)N(C)C)c2)c1 (configuration not stated)
19	6	nt	nt	-4%	Cc1cnc(SCCc2ccncc2)nc1C
20	nt	?	27%	-4%	O=C1NN(c2cccc(Br)c2)C(=O)/C1=C\c1ccccc1
21	nt	8.2%	-10%	-43%	CC(C)(C)c1ccc(C(=O)N2CCC(C(=O)NC3CCCCCC3)CC2)cc1
22	nt	0.1%	1%	0%	O=C(C1CCN(S(=O)(=O)c2ccc(Br)cc2)CC1)N1CCOCC1
23	0	0.7%	-10%	-7%	O=C(CSc1nnc(Cn2c(=O)sc3ccccc32)n1CCc1ccccc1)N1CCCC1
24	-7	-0.7%	0%	3%	CCN(CC(=O)NC(C)C)C(=O)c1ccc(S(=O)(=O)N(C)c2ccccc2OC)cc1
25	nt	0.0%	-15%	3%	COc1ccccc1NC(=O)c1sc2ncn(CC(=O)N3CCC(C)CC3)c(=O)c2c1C
26	2	-5.3%	34%	-6%	Cc1ccnc(N2CCCC(C(=O)Nc3cc(F)ccc3C)C2)n1 (configuration not stated)
27	0	5.6%	15%	-5%	O=C(CCC(=O)N1CCCC1)Nc1nnc(C2CCCCC2)s1
28	-9	1.7%	14%	4%	COc1ccc(N2CCN(C(=O)C3CCN(S(=O)(=O)c4ccccc4)CC3)CC2)cc1
29	1	0.0%	-4%	-29%	CN(Cc1nc(-c2ccccn2)no1)S(=O)(=O)c1ccccc1
30	nt	0.7%	1%	nt	c1ccc([C@H]2CNCCN2CCc2cccc3ccccc23)cc1

Compound profiles (already shown). Order of screens: GLA inh pH 4.5, Rango-impB inh, Rango dissoc inh, miR-21 reporter
`CCOc1cccc(C(=O)Nc2cccc(-c3nnc(-c4ccc(C)cc4)o3)c2)c1` is listed with 5, -1.2%, 1%, -4%
`COc1ccc(N2CCN(C(=O)C3CCN(S(=O)(=O)c4ccccc4)CC3)CC2)cc1` is listed with -9, 1.7%, 14%, 4%
`O=C(Nc1ccc(Cl)cc1)c1cnc(-c2ccccc2)nc1-c1ccccc1` is listed with 4, 1.8%, 17%, -2%

Next compounds:
No.	GLA inh pH 4.5	Rango-impB inh	Rango dissoc inh	miR-21 reporter	SMILES
31	0	-0.4%	-10%	-2%	CC(C)(C)S(=O)(=O)c1cnc(-c2cnccn2)nc1N
32	2	-0.8%	-3%	-2%	Cn1ncc([N+](=O)[O-])c1C(=O)N1CCOCC1
33	-3	-4.6%	20%	-50%	Cn1c(=O)[nH]c(=O)c2c1nc(N1CCCCC1)n2C/C=N/Nc1ccc(C(=O)O)cc1
34	11	-1.6%	3%	-1%	COC(=O)CCN(C(=O)c1cccc(OC(C)=O)c1)c1ccccn1
35	-10	-1.5%	-9%	-1%	COc1ccc(N2CCN(S(=O)(=O)c3ccc4c(c3)OCCO4)CC2)cc1
36	nt	-3.1%	27%	nt	COc1ccc2[nH]c3c(c2c1)CCN1C(=O)C(CC(=O)NC/C=C(\C)CCC=C(C)C)C[C@H](C(=O)N2CCOCC2)[C@@]31CCC1CCCC1 (some centres not stated)
37	4	1.9%	15%	0%	CCOC(=O)N1CCC(NC(=O)c2cc3c(=O)n(C)c4ccccc4c3n2C)CC1
38	nt	0.1%	-7%	-6%	O=C(CCC(=O)Nc1ccc(F)cc1)N/N=C/c1cccc(Br)c1
39	5	-0.1%	20%	-2%	CC(C)(C)c1ccc(N2C(=N)SCC2=O)cc1
40	-1	-1.7%	6%	0%	COc1ccc(S(=O)(=O)N(C(C)=O)c2ccc3oc(=O)sc3c2)cc1
41	nt	?	-3%	4%	COc1ccc(-c2noc(N3CCC(C(=O)NCCCN4CC(C)CC(C)C4)CC3)n2)cc1 (configuration not stated)
42	0	2.6%	-1%	-5%	C/C(=N/OC(=O)c1ccc(C)cc1)c1ccc(N2C(=O)C3CCCCC3C2=O)cc1 (configuration not stated)
43	nt	-2.0%	-2%	?	CCC[N+]1(CC#CCC(c2ccccc2)c2ccccc2)CCCCC1
44	-6	-1.9%	3%	-4%	CCCCNC(=O)Nc1ccon1
45	1	-1.7%	10%	-1%	N#Cc1ccccc1Sc1ccccc1C(=O)OCC(=O)NC1CCCCC1
46	-6	-3.6%	9%	0%	CSC1=NCCN1C(=O)Cc1cccc2ccccc12
47	nt	-0.8%	1%	nt	C=CC[C@]12CCc3sccc3C1N(c1ccc(C(=O)OCC)cc1)C2=O (some centres not stated)
48	-2	0.2%	10%	-86%	NNc1ccc(Cl)c(C(=O)O)c1
49	nt	-2.7%	-3%	12%	O=C(Cc1ccccc1)Nc1cccc(NC(=O)c2ccccc2)c1
50	1	-3.9%	-24%	-3%	Cn1c(-c2ccccc2)nc2cnccc21
51	nt	0.3%	1%	6%	COc1ccccc1N1CCN(C(=O)C2CCC(CNS(=O)(=O)c3ccc(NC(C)=O)cc3)CC2)CC1 (configuration not stated)
52	-4	-4.0%	3%	-1%	Clc1ccc(Cl)c(OCCN2CCOCC2)c1
53	8	-1.2%	1%	3%	Cc1ccc(S(=O)(=O)NCC(c2cccnc2)N2CCOCC2)cc1 (configuration not stated)
54	-6	-0.6%	0%	3%	CCCN(Cc1ccccc1)C(=S)Nc1cccc(C)c1C
55	nt	-0.8%	1%	1%	CCN(CC)CCCNC(=S)N(CCCO)Cc1cc2cc3c(cc2[nH]c1=O)OCO3
56	1	-0.8%	-8%	-17%	COC(=O)c1ccc(CNC(=O)COc2ccccc2Br)o1
57	nt	-0.2%	-7%	nt	COc1cc(C(C)=O)ccc1OCC(=O)Nc1cc(S(=O)(=O)N2CCOCC2)ccc1N1CCCC1
58	nt	0.2%	-6%	nt	COc1ccc(NC(=O)COC(=O)C2CCN(C(=O)c3ccc(Cl)cc3)CC2)c([N+](=O)[O-])c1
59	0	3.5%	-27%	16%	O=C(Cn1cc[n+](CC(=O)c2ccc(Cl)cc2Cl)c1)c1ccc(Cl)cc1Cl
60	8	1.2%	21%	9%	CCn1cnc2cc(NS(=O)(=O)c3ccc(C)cc3)ccc21
61	3	1.4%	-16%	-1%	O=C(Nc1ccccc1C(=O)N1CCCC1)C1CCN(c2ncccn2)CC1
62	3	-0.1%	10%	-1%	COC(=O)CCSC(=S)N1CCOCC1
63	-4	-3.5%	-7%	-35%	Cc1cc(C(=O)N/N=C2\CCCC(=O)C2)c(C)n1-c1ccccc1
64	-1	-0.2%	11%	10%	O=C(c1ccccc1)c1nn(-c2ccccc2)c2nnc(Cc3ccccc3)c(=O)n12
65	-2	-0.5%	6%	2%	COc1ccc(CN(C(=O)COc2ccccc2)c2ccccc2C(=O)O)cc1
66	-7	-0.7%	4%	-40%	CCN(CC)C(=O)c1cc(-c2ccc(Br)cc2)on1
67	0	-3.3%	-1%	-16%	COc1ccc2occ(C(=O)c3ccc(N=C(C)N(C)C)cc3)c2c1
68	7	-2.0%	-17%	3%	O=C(N/N=C/c1ccco1)C1(O)c2ccccc2-c2ccccc21
69	4	-0.1%	-1%	-11%	CC(=O)Nc1cc(C(F)(F)F)ccc1OCC1CCCO1 (configuration not stated)
70	5	-0.4%	0%	0%	CCOC(=O)N1CCC(N2Cc3cccc(C(=O)N4CC(C)CC(C)C4)c3C2=O)CC1 (configuration not stated)
71	-8	-0.8%	-13%	-11%	Cc1cc(-c2nc3ncccc3o2)ccc1NC(=S)NC(=O)C(C)C
72	nt	-0.7%	0%	0%	O=C(Nc1ccccc1Cl)NC1(C(=O)N2CCOCC2)CCCCC1
73	2	-1.8%	-14%	-6%	C/C(=N\NC(=O)Cn1c(-c2ccccn2)nc2ccccc21)c1cccc(O)c1
74	nt	-2.3%	-7%	-6%	CS(=O)(=O)c1ccc(NCC2CCCO2)c([N+](=O)[O-])c1 (configuration not stated)
75	nt	2.7%	3%	nt	O=C1C2C3C=CC(C3)C2C(=O)N1c1ncc([N+](=O)[O-])s1 (configuration not stated)
76	-3	1.2%	-15%	-3%	O=C(CN(C(=O)c1ccc(Cl)cc1)N1C(=O)C2CCCCC2C1=O)c1ccc(Cl)cc1 (configuration not stated)
77	2	0.2%	-9%	-5%	CCCCNC(=S)N/N=C/c1cc(C)ccc1C
78	nt	?	9%	nt	COc1cc(C(c2c(NC(=O)c3ccco3)sc(C)c2C)N2CCOCC2)cc(OC)c1OC (configuration not stated)
79	9	4.1%	0%	8%	N=c1sccn1CC(=O)NCCc1ccc(Cl)cc1Cl
80	0	-0.5%	15%	-3%	CC(NC(=O)COc1ccc(-c2nnco2)cc1)c1ccc(Cl)cc1Cl (configuration not stated)
81	-1	1.2%	-11%	0%	CN(C)c1ccc(-c2nnn(CC(=O)N3c4ccccc4CCc4ccccc43)n2)cc1
82	-1	0.3%	-6%	-8%	Cc1nc2c(ncn2-c2ccccc2)c(=O)n1NC(=O)CN1CCCCC1
83	nt	-1.6%	2%	nt	O=C(NN=Cc1c(F)c(F)c(F)c(F)c1F)c1ccc(NS(=O)(=O)c2cccs2)cc1
84	nt	3.5%	22%	nt	O=C(CCCc1ccccc1)NCCS(=O)(=O)N1CCN(c2ccc(F)cc2)CC1
85	0	-0.4%	-2%	-64%	COc1ccc(-c2csc(NCc3ccco3)n2)cc1C
86	nt	0.8%	-11%	nt	COc1ccccc1NC(=O)C(=O)NCCC1CCCCN1S(=O)(=O)c1ccccc1 (configuration not stated)
87	nt	-5.6%	8%	nt	O=S(=O)(c1ccc(F)cc1)N1CCCC(c2nc(-c3ccc(F)cc3)no2)C1 (configuration not stated)
88	nt	0.8%	-3%	18%	CCNC(=S)N1CCC(Cc2ccccc2)CC1

Compounds listed so far that have a cyano group:
No.	GLA inh pH 4.5	Rango-impB inh	Rango dissoc inh	miR-21 reporter	SMILES
15	15	-3.1%	3%	-26%	COc1ccccc1-c1nc(C#N)c(N2CCCCCC2)o1
45	1	-1.7%	10%	-1%	N#Cc1ccccc1Sc1ccccc1C(=O)OCC(=O)NC1CCCCC1

Screening data as filed in PubChem.
